Bioassay records from PubChem.
BJeLR lethal: MLPCN primary cell-based screen for lethality selective to Ras in HRASV12 cells. BJeLR (HRASV12) viability, CellTiter-Glo ATP luminescence, 48 h; reference of the scale not given here. inhibition, % (concentration not given with the values). actives 0.17% (n = 300,000). AID 1554, 2009;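 active = replicate mean above 50%; inconclusive = above 50% but judged a plate artefact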;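 note: 50 nL library stock added to about 25 µL; numbers are from one replicate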
Mtb hypoxia rep: PubChem AID 1159583 | M. tuberculosis hypoxia-regulated fluorescent reporter, fluorescence | actives 0.1% (n = 300,000) | fluorescence inhibition, % (no concentration beside the values);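 active = 35 to 45% if threefold the growth effect, above 45% if 1.5-fold the growth effect; inactive = the rest, general growth blockers included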;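 note: wells of about 50 µL received 100 nL stock; 0% = vehicle wells and 100% = reference inhibitor wells; whole bacteria with a GFP reporter of the hypoxia response; strong numbers were not always called active; many hits fall short of the cut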
RN4220 kill: growth inhibition of S. aureus RN4220, primary screen, OD600 | 16 h | actives 0.33% (n = 330,000) | inhibition, % (concentration not given with the values);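 active = z-score of -3 or lower and OD600 up to 0.18 on both plates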;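 note: plate controls were untreated cells for no effect and reference antibiotic for full effect; stock transfer was 100 nL into about 80 µL; one replicate is shown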
Sa ugtP lethal: growth inhibition of ugtP-null S. aureus, primary screen, RN4220 ugtP deletion, OD600 | growth inhibition, % (no concentration beside the values) | 16 h; some inactives read as strong as hits | actives 0.54% (n = 330,000) | AID 1259309, 2017;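 active = z-score under -3 and OD600 up to 0.15 on both plates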;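 note: plate controls were untreated wells for no effect and antibiotic for full effect; wells of about 80 µL received 100 nL stock; the first replicate is given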
Bead autofluor: flagged as autofluorescent in microsphere protease counterscreen | compound autofluorescence counterscreen, microsphere flow cytometry; hits give high values | fluorescence intensity (no concentration beside the values) | actives 3.1% (n = 360,000) | AID 624483;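 active = at least 3 SD above the mean of all compounds, about 16000 in these data; inconclusive = too few beads counted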;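 note: 100 nL of 1 mM stock went into each well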
PrP 5UTR inh: inhibition of PrP 5' UTR reporter expression | inhibition, % (test concentration not listed) | cell-based PrP 5' UTR mRNA reporter, plate reader | actives 0.35% (n = 340,000);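 active = every replicate at 50% or more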;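 note: 0 = median of the neutral control wells; tested in H4 reporter cells; numbers are from one replicate; inactives centre near -14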
Mtb hypoxia rep growth: second read-out of Mtb hypoxia rep, no call of its own (marks repeat the call); growth inhibition, %; measured here: M. tuberculosis growth (absorbance);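 0% = vehicle and 100% = reference antibiotic; read after six days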
Numbers without * were called inactive; u = inconclusive; x = no result given; & = joins results of further samples.

SMILES	BJeLR lethal	Mtb hypoxia rep	Mtb hypoxia rep growth	RN4220 kill	Sa ugtP lethal	Bead autofluor	PrP 5UTR inh
CCC(C)(C)n1nnnc1C(c1cccs1)N1CCc2ccccc21 (stereo not drawn)	11	1	4	8.5	8	13430	-32
COc1ccc2[nH]c(C(=O)NN=Cc3ccc(O)cc3O)cc2c1	x	7	-3	5.9	-16	x	x
O=C(N/N=C/c1ccc([N+](=O)[O-])s1)c1ccccc1	-6	x	x	x	x	4059	8
CCCCCCCCCCCCCCCC[N+](C)(C)CC	-5	18	12	100*	100*	4241	-20
C/C(=N\NC(=O)c1ccncc1)c1cc2ccccc2oc1=O	-17	x	x	x	x	2187	-38
O=C(NCCCN1CCCC1=O)c1ccc(Cl)c(NS(=O)(=O)c2ccc(F)cc2)c1	-7	-5	5	-1.6	0	3534	-8
S=c1[nH]nc(-c2cccc(Cl)c2)n1CCN1CCCCC1	0	x	x	1.3	-1	2491	-20
CCOC(=O)N/N=C(\C)c1ccccc1OC(F)F	12	x	x	x	x	9124	-31
CC(=O)NC(NC(=S)Nc1ccccc1Br)C(Cl)(Cl)Cl (stereo not drawn)	-6	-1	-1	-0.2	-4	2146	-16
COc1ccc(CN2CCNC(=O)C2CC(=O)N(C)Cc2ccno2)c(F)c1 (stereo not drawn)	1	8	4	6.4	8	4178	4
COc1ccc(CN2C(=O)C(CC(C)C)Nc3ncnc(N4CCOCC4)c32)cc1 (stereo not drawn)	-1	-3	-5	7.6	12	4048	-12
COc1ccc(CN2C(=O)c3ccc(C(=O)O)cc3C2=O)cc1	8	3	6	2.1	4	3535	-29
CCOc1ccc(C(=O)NCC(=O)N2CC=C(c3ccccc3)CC2)cc1OCC	-7	10	-7	2.1	-1	6231	2
COc1cc(NC(=O)c2cc(-c3cccc(O)c3)on2)cc(OC)c1OC	5	4	7	-7.1	-13	6196	-12
COc1ccc(CCC(=O)Nc2cc([N+](=O)[O-])ccc2OC)cc1	-1	4	9	2.7	-3	2404	-23
O=C(Nc1nc2ccccc2s1)c1cnccn1	14	4	6	5.4	6	5292	-44
CC(=O)c1c(C(C)=O)c(C)n(-c2cccc3cccnc23)c1C	0	5	4	2.3	0	5050	-40
COC(=O)C1=C(C)Nc2ncnn2C1c1ccco1 (stereo not drawn)	1	17	-10	-16	-6	2950	-3
O=C1c2ccncc2C(=O)N1C1CCCCC1	-5	1	1	-0.7	4	15648	-19
Cn1cnc2c1c(=O)n(Cc1ccccc1)c(=O)n2C	-1	7	3	-16	-2	6078	-23
Cc1ccc(OCCNC(=O)c2ccccc2SCC(=O)N2CCCC2)cc1	1	-4	1	1.7	1	6083	3
CC(Cn1cnc([N+](=O)[O-])n1)=NNC(=O)c1ccccc1O	x	1	-1	3.8	10	x	x
CCC1CCCCN1CCCNC(=O)CN1C(=O)COc2ccc(S(=O)(=O)N3CCOCC3)cc21 (stereo not drawn)	-6	7	-3	-0.3	9	6773	-27
CC(C)CCNC(=O)c1cc(C(=O)c2cc(F)ccc2O)cn(CCC(C)C)c1=O	-2	12	3	2.5	6	4466	-17
CCNC(=O)CN1C(=O)NC(Cc2ccccc2)(Cc2ccccc2)C1=O	9	4	10	6.6	2	3923	-19

Continued (3 carried over from the part before).
SMILES	BJeLR lethal	Mtb hypoxia rep	Mtb hypoxia rep growth	RN4220 kill	Sa ugtP lethal	Bead autofluor	PrP 5UTR inh
CCC1CCCCN1CCCNC(=O)CN1C(=O)COc2ccc(S(=O)(=O)N3CCOCC3)cc21 (stereo not drawn)	-6	7	-3	-0.3	9	6773	-27
CC(C)CCNC(=O)c1cc(C(=O)c2cc(F)ccc2O)cn(CCC(C)C)c1=O	-2	12	3	2.5	6	4466	-17
CCNC(=O)CN1C(=O)NC(Cc2ccccc2)(Cc2ccccc2)C1=O	9	4	10	6.6	2	3923	-19
O=C(/C=C/c1ccc(S(=O)(=O)NCc2ccco2)cc1)NCc1cccc(Cl)c1	6	1	5	1.1	-15	2616	-38
Cc1noc(C)c1C(=O)Nc1sc(C)c(C)c1C#N	-6	14	11	7.2	-14	8237	x
Cc1cccc(Nc2ncccc2C(=O)O)c1C	-12	13	6	8.6	1	5331	-10
C[C@H](NC(=O)c1nc[nH]c1C(=O)NCc1ccccc1)C(=O)OCc1ccccc1	10	x	x	x	x	3839	-41
CCCn1nnc(NC(=O)c2cccc(OCc3ccccc3)c2)n1	-12	x	x	3.1	2	4454	-14
O=C1NC2(CCC3(CC2)OCCO3)NN1c1ccccc1	3	5	4	6.0	3	3420	-19
N#C/C(=C(/O)COC(=O)COc1ccc(Cl)cc1)c1nc2ccccc2[nH]1	2	11	-3	5.7	0	3127	-8
COc1cc(OC)cc(-c2cc3ccccc3c(=O)o2)c1	x	-4	1	7.5	0	3629	-45
Cc1cc(C(=O)Nc2cc(S(C)(=O)=O)ccc2Cl)no1	-7	1	2	3.9	4	5188	-84
CC(C)CC(c1nnnn1C(C)C)N1CCN(C(=O)c2ccco2)CC1 (stereo not drawn)	0	-14	-6	3.1	0	6097	-30
Cc1c(C(=O)NN)sc(-c2ccccc2)c1C#N	-5	12	-5	18	2	4497	-22
CCOC(=O)C1=C(N)OC2=C(C(=O)CC(C)(C)C2)C12C(=O)Nc1ccccc12 (stereo not drawn)	2	-2	-4	4.4	6	9634	-21
COC(=O)C1=C(c2ccc(-c3ccccc3)c(F)c2)CC2CCC1N2C(=O)NCCc1ccccc1 (stereo not drawn)	x	1	7	-2.0	7	x	x
COCCNC(=O)c1ccc2c(c1)S(=O)(=O)c1ccccc1C2=O	-9	-15	-7	9.7	-2	3889	-22
COC(=O)Cn1c2c(c3cc(C)ccc31)CCCC2NC(C)c1ccccc1 (stereo not drawn)	11	10	15	-1.6	4	3477	-7
O=C(Nc1ccc(Cl)cn1)c1cnn2cccnc12	x	x	x	1.2	-5	4841	-85
C1=C(CCNc2ncnc3nc[nH]c23)CCCC1	2	3	2	-0.1	8	5059	-63
CN1CC(C(=O)c2ccccc2)C(C(=O)c2ccccc2)C1 (stereo not drawn)	5	x	x	1.8	-1	4801	-30
CCN1CCN(Cc2ccc(NC(=O)c3ccc(C)c(NC(=O)C(=O)c4c[nH]c5ccccc45)c3)cc2C(F)(F)F)CC1	26	14	18	101*	100*	3491&3958&4316	35&39
COCCN(CCOC)C(=S)Nc1cc(S(=O)(=O)N(C)C)ccc1C	-1	-6	2	-3.0	-4	4184	-3
CCN(C(=O)CN1C(=O)S/C(=C\c2ccccc2OC)C1=O)C1CCS(=O)(=O)C1 (stereo not drawn)	7	-2	-2	5.4	-1	7161	5
O=Cc1nc(-c2ccc(Cl)cc2)n2ccccc12	11	3	0	6.2	2	2486	11
COc1ccc(NC(=S)N2CCC(Cc3ccccc3)CC2)cc1	x	-1	0	0.6	4	4751	-29
Cc1nc2ccc(NC(=O)c3ccc(C)c(S(=O)(=O)N4CCOCC4)c3)cc2s1	x	-15	-12	-0.9	-1	2929	-18
CCNc1oc(-c2ccccc2F)nc1S(=O)(=O)c1ccccc1	-3	1	-3	2.6	8	4097	-14
(next part)
SMILES	BJeLR lethal	Mtb hypoxia rep	Mtb hypoxia rep growth	RN4220 kill	Sa ugtP lethal	Bead autofluor	PrP 5UTR inh
CC12CC(NC(=O)N1CCc1ccccc1)c1ccccc1O2 (stereo not drawn)	-6	16	1	4.5	-15	10856	-14
Cc1noc(C)c1S(=O)(=O)N(C)C[C@H]1Oc2c(NC(=O)Nc3ccc4c(c3)OCO4)cccc2C(=O)N([C@H](C)CO)C[C@@H]1C	x	1	6	3.6	6	2832	-39
Clc1cccc(N2CCN(c3ncnc4nc[nH]c34)CC2)c1	6	-11	1	3.7	9	4597	-14
CCC=CC(=O)N1CC2(CC(c3cccc(NC(=O)COc4ccc(Cl)cc4)c3)=NO2)CC1C(N)=O (stereo not drawn)	x	4	5	5.9	4	x	x
O=C(CCn1ccc2ccccc21)Nc1ccc(N2CCOCC2)cc1	4	1	0	3.5	3	3119	-6
Cc1ccc(SCc2nc3ccccc3n2CC(=O)Nc2c(C)cccc2C)cc1	0	13	15	1.0	-14	22196*	-12
COC(=O)c1ccccc1N/C=C1\CCc2c(c(C)nn2-c2ccccn2)C1=O	-3	x	x	x	x	2492	-19
COCCN(Cc1nc2ccccc2c(=O)[nH]1)C(=O)COc1ccccc1-c1ccccc1	x	2	1	6.9	6	5563	-16
COc1cc(OC)c(OC)cc1/C=N/Nc1ncnc2c1[nH]c1ccc(C)cc12	9	x	x	x	x	4157	-14
C=CCn1c(SCC(=O)c2c(N)n(C3CC3)c(=O)[nH]c2=O)nnc1-c1ccc(OC)cc1	x	11	4	2.7	8	u	-15
CCCOc1ccccc1C1CC(=O)NC(C)=C1C(=O)OCC(C)C (stereo not drawn)	-4	x	x	4.7	-6	2093	-8
COc1ccc(/C=N/NC(=O)c2nonc2C)cc1	7	x	x	x	x	3307	-54
CSc1nc2ccc3nc(NC(=O)c4cccs4)sc3c2s1	-2	1	1	-2.2	-32	4312	-36
O=C(C1=C(O)C(=O)N(CCOCCO)C1c1cccs1)c1cccs1 (stereo not drawn)	-3	x	x	-0.5	-3	3888	-11
C=CCn1c(O)c(N=NC(=O)c2ccc3c(c2)OCO3)c2ccccc21	9	x	x	2.8	4	4978	-30
CC(=O)Nc1ccc(NC(=O)C(C)OC(=O)c2ccccc2C(=O)c2ccc(Cl)c([N+](=O)[O-])c2)cc1 (stereo not drawn)	12	4	5	-3.3	-2	11300	0
CCN(CC)S(=O)(=O)c1cc(NS(=O)(=O)c2cccs2)ccc1C	x	6	4	12	4	2883	-22
Cc1cc(C)cc(NC(=O)CS(=O)(=O)c2ccccc2)c1	5	-1	16	0.2	5	3846	-11
Cn1ncc2c(N3CCOCC3)ncnc21	3	-2	-7	-5.1	1	12026	-23
CC(=O)OC1CC(C)(C)N(OC(=O)CCCN2C(=O)c3ccccc3C2=O)C(C)(C)C1	-11	x	x	-0.3	2	4274	-12
Cc1ccc(S(=O)(=O)N(CC(=O)NCCSCc2ccco2)c2cc(C)ccc2C)cc1	-12	5	7	0.0	0	4251	-19
CC(=O)Nc1ccc(S(=O)(=O)N2CCOCC2)cc1	-3	-4	9	2.5	-2	21279*	-19
COC(=O)c1cnn(-c2ccc(F)cc2F)c1/C=N/NC(N)=S	3	x	x	x	x	u	-21
O=C(CCl)Nc1ccccc1C(=O)NCc1ccccc1	5	23	29	-2.6	-9	3985	-18
CC(=O)c1c(C)nc2sc3c(=N)n(N)cnc3c2c1-c1ccc(Cl)cc1	-5	10	-1	2.1	5	2543	-12
Later entries:
SMILES	BJeLR lethal	Mtb hypoxia rep	Mtb hypoxia rep growth	RN4220 kill	Sa ugtP lethal	Bead autofluor	PrP 5UTR inh
NS(=O)(=O)c1ccc(NC(=O)CCC(=O)N2CCOCC2)cc1	-3	x	x	x	x	3862	-10
O=[N+]([O-])c1cc(Cl)cc(C=NNC(=S)Nc2cc(S(=O)(=O)N3CCOCC3)ccc2Cl)c1O	x	9	-3	18	-12	x	x
O=C(c1ccccc1)c1cccn1CC(=O)N1CCN(C2CCCCC2)CC1	-8	13	12	7.0	1	3226	-19
O=C(NCCN1CCCC(O)C1)c1cc(COc2c(F)cccc2F)on1 (stereo not drawn)	2	-7	-13	-5.4	-5	4178	-7
CCc1c(Nc2ccccc2C)nc(N)[nH]c1=O	x	19	7	2.2	-2	3934	-4
CC(C)(C)OC(=O)N1CCN(C(=O)c2nc[nH]c2C(=O)N2CCN(c3ccccc3)CC2)CC1	x	16	15	5.5	3	4028	-5
CCCC(=O)Nc1nc2ccc(NC(=O)c3ccc(Br)o3)cc2s1	9	x	x	-3.4	-2	3822	-9
O=c1c2ccccc2nc2c3ccccc3cnn12	-2	-6	-5	1.1	3	3211	-69
CCN1C(=O)/C(=C\N(C)C)c2ccccc21	-6	14	15	2.5	0	7006	-14
CCOC(=O)c1cc(C)n(CCCN2CCOCC2)c1C	-5	x	x	-0.7	11	3070	-40
COc1ccccc1NS(=O)(=O)c1cc(N=N/C(C(=O)Nc2ccc(Cl)cc2)=C(/C)O)ccc1C	x	-1	-8	-1.5	-2	5768	-13

Whole records as entered above.
`CCOC(=O)c1cc(C)n(CCCN2CCOCC2)c1C` in the list: BJeLR lethal = -5; Mtb hypoxia rep = x; Mtb hypoxia rep growth = x; RN4220 kill = -0.7; Sa ugtP lethal = 11; Bead autofluor = 3070; PrP 5UTR inh = -40
`NS(=O)(=O)c1ccc(NC(=O)CCC(=O)N2CCOCC2)cc1` in the list: BJeLR lethal = -3; Mtb hypoxia rep = x; Mtb hypoxia rep growth = x; RN4220 kill = x; Sa ugtP lethal = x; Bead autofluor = 3862; PrP 5UTR inh = -10
